StopGo FLuc – FMDV 2A StopGo reporter, firefly signal; 120,000 compounds, 0.23% hits; Potency, µM (highest dose often 57.5 µM), for the others: top-dose signal change, negative = less light; HEK cells with a luciferase reporter of 2A StopGo recoding; AID 1745856; active = well fitted falling curve with a large enough effect; inconclusive = small, poorly fitted or top-dose-only effect; inactive = no such curve, though single readings can be large or run the other way; further: nearly all actives have a fitted effect of over 60% in size; overnight with compound
2A Renilla – FMDV 2A StopGo reporter, Renilla signal | AID 1745857 | Potency, µM (titrated, usually from 57.5 µM), without a hit: at the highest dose signal change, negative = less light | HEK cells with a luciferase reporter of 2A StopGo recoding | 120,000 compounds, 0.32% hits; active means well fitted falling curve with a large enough effect; inconclusive means small, poorly fitted or top-dose-only effect; inactive means no such curve, though single readings can be large or run the other way; further: nearly all actives have a fitted effect of over 55% in size; overnight with compound
Active calls of the source: *; ? = inconclusive; & = joins results of further samples; [ ] = dose if it differs, or a comment. On the % scale 0 is the no-effect control and ±100 the full control effect; potency means the concentration at half of the fitted maximal effect. Some of the compounds tested (hit frequency here may not be typical).

The opening two records as a preview:
#	SMILES	StopGo FLuc	2A Renilla
1	Cc1cccc(Nc2c3c(nc4nncn24)CCC3)c1C	25%	6%
2	Cc1oc(-c2ccccc2)nc1Cn1cnc(C#N)n1	0%	11%

This part in full, previewed entries included:
#	SMILES	StopGo FLuc	2A Renilla
1	Cc1cccc(Nc2c3c(nc4nncn24)CCC3)c1C	25%	6%
2	Cc1oc(-c2ccccc2)nc1Cn1cnc(C#N)n1	0%	11%
3	CC(=O)Nc1ccc(NC(=O)CCCn2nc(C)c3sc4ccccc4c3c2=O)cc1	30%	37%[activator]
4	CCOc1cc(CNc2ccc(O)cc2)cc(Cl)c1OCc1ccccc1	4%	3%
5	CN1C(=O)C(Cc2nc3ccccc3c(=O)n2C)c2cc(Br)ccc21 (stereo not given)	14%	2%
6	COc1cccc(NS(=O)(=O)c2ccc3[nH]cc(C(=O)NC4CCCCC4)c(=O)c3c2)c1	?	74%[activator]
7	CCCNC(=O)CSc1nc2ccccc2nc1C	8%	11%
8	Nc1cccc(C(=O)c2ccncc2)c1	22%	-1%
9	Cc1cccc(N2C(=O)N(Cc3cccc(C#N)c3)c3ccccc3S2(=O)=O)c1	-9%	31%[activator]
10	Cc1cc(F)ccc1NS(=O)(=O)c1ccc(-n2cccn2)cc1	22%	100%[activator]
11	Cc1cc(NC(=O)c2cc(Cl)ccc2Cl)ccc1-c1cc2ccccc2oc1=O	0%	142%[activator]
12	CCOC(=O)c1c(S(=O)(=O)NCC(=O)N2CCC(C)CC2)c(C)n(C)c1C	2%	73%[activator]
13	Cc1ccc(C(c2c(O)cc(C)n(Cc3ccco3)c2=O)N2CCC(C)CC2)cc1 (stereo not given)	-23%	15%
14	CCOC(=O)C1=C(CN(CCOC)Cc2ccco2)NC(=O)NC1c1cccc(OC)c1OC (stereo not given)	2%	13%
15	NCc1ccc2[nH]ccc2c1	1%	4%
16	Cc1ccc(NC(=O)CN2C(=O)CCc3cc(S(=O)(=O)N4CCCCC4)ccc32)cc1C	?	?
17	Cc1ccc(Nc2nnc(-c3ccc(C)c(S(=O)(=O)N4CCN(C)CC4)c3)c3ccccc23)c(C)c1	8%	11%
18	COc1ccccc1NC(=O)Nc1nc(CC(=O)NCC(C)C)cs1	23%	0%
19	C#C[C@]1(O)CC[C@H]2[C@@H]3CCC4=Cc5oncc5C[C@]4(C)[C@H]3CC[C@@]21C	-4%	-6%
20	COc1ccc(/C=C2\Oc3cc(OS(=O)(=O)c4ccc(C)cc4)ccc3C2=O)cc1	-7%	3%
21	CC(C)(C)C(=O)OCOC(=O)[C@@H]1N2C(=O)[C@@H](NC(=O)[C@H](N)c3ccccc3)[C@H]2SC1(C)C	-21%	-10%
22	Cc1cc(C)cc(OCC(O)Cn2nc(-c3ccco3)oc2=O)c1 (stereo not given)	-3%	-6%
23	CCCc1sc(C(=O)OC(C)C(=O)Nc2cc(C)on2)cc1CC (stereo not given)	30%	15%
24	COc1ccc(-c2nn3c(C(C)(C)C)nnc3s2)cc1OC	21%	8%
25	CC(=O)N1CCC(NC(=O)c2cc(=O)c3ccccc3o2)CC1	-12%	-19%
26	COCCCn1c(C)cc(C(=O)Cn2cnc3c2c(=O)n(C)c(=O)n3C)c1C	7%	2%
27	Cc1cc(O)c(-c2n[nH]c3c2C(c2cccc(O)c2)N(Cc2ccco2)C3=O)cc1Cl (stereo not given)	-4%	27%
28	O=C(NCc1ccc(Cl)c(Cl)c1)C1CCN(c2ncnc3nc[nH]c23)CC1	1%	0%
29	CC(C)NC(=O)c1ccc(Cl)cc1	21%	2%
30	CCn1c(-c2ccc(S(=O)(=O)N3CCOCC3)cc2)csc1=Nc1ccc(C)c(Cl)c1	-6%	-9%
31	CC(C)Cn1c(=O)c2ccccc2n2c(CCC(=O)N3CCN(c4cccc(Cl)c4)CC3)nnc12	-12%	-12%
32	Cc1ccc2c(n1)Oc1ccc(C(C)C(=O)OCC(=O)N(C)C)cc1C2 (stereo not given)	18%&50%	-17%&-7%
33	Cc1ccc(-n2nnnc2CNS(=O)(=O)c2ccccc2Cl)cc1	53%[activator]	156%[activator]
34	COc1ccc(OC)c(NC(=O)CSC2=Nc3ccccc3C3=NC(CCC(=O)NC4CCCCC4)C(=O)N23)c1 (stereo not given)	-22%	4%
35	Cc1ccc(-n2c(=O)c3cccnc3n2CC(=O)Nc2ccc(Br)cc2)cc1C	-6%	-8%
36	Cc1c(C(=O)OCc2ccccc2)[nH]c2c1C(=O)CC(c1ccccc1)C2 (stereo not given)	7%	45%[activator]
37	CCCCNC(=O)CCn1c(=O)c2ccccc2n(Cc2cc(C)ccc2C)c1=O	-4%	-2%
38	O=C(CCC1CCCO1)NC1CCCC1 (stereo not given)	14%	6%
39	N#CCCN1CCN(C(C(=O)O)c2cn(CC(=O)O)c3cc(F)ccc23)CC1 (stereo not given)	4%	-4%
40	Cc1cc(C)cc(NC(=O)N2CCC(C(N)=O)(N3CCCCC3)CC2)c1	-13%	-10%
41	O=c1ccc(S(=O)(=O)N2CCCC2)cn1Cc1ncc(-c2ccc(Cl)cc2)o1	?	?
42	O=C(Nc1cccc(C(F)(F)F)c1)c1cc2nc(-c3ccco3)cc(C(F)(F)Cl)n2n1	-21%	-5%
43	COc1ccc(Cl)cc1NC(=O)N1CCSc2ccccc21	-20%	-7%
44	NS(=O)(=O)c1ccc(NC(=O)c2ccc3c(c2)CCN3S(=O)(=O)c2ccccc2)cc1	-9%	65%[activator]
45	N#CC1=C(SCC(=O)Nc2ccccc2)NC(=O)C(C#N)C12CCCCC2 (stereo not given)	?	?
46	CCc1ccc(CNC(=O)CCn2c(=O)c3cccn3c3ccc(F)cc32)cc1	-6%	11%
47	CCCCN(CC)C(=O)Cn1ncc2c3ccccc3n(CCC)c2c1=O	-16%	2%
48	Cc1cccc(S(=O)(=O)c2cn(C)c3cc(N4CCCCCC4)c(F)cc3c2=O)c1	-10%	-3%

Another view of part of the listing above.
(43) COc1ccc(Cl)cc1NC(=O)N1CCSc2ccccc21
  StopGo FLuc: -20%
  2A Renilla: -7%

(44) NS(=O)(=O)c1ccc(NC(=O)c2ccc3c(c2)CCN3S(=O)(=O)c2ccccc2)cc1
  StopGo FLuc: -9%
  2A Renilla: 65%[activator]

Next entries.
#	SMILES	StopGo FLuc	2A Renilla
49	O=C(c1nn(Cc2ccccc2)c(=O)c2ccccc12)N1CCN(c2ccccc2)CC1	5%	81%[activator]
50	CC(C)(C)c1ccc(C(=O)COC(=O)c2ccc3ccccc3n2)cc1	9%	-4%
51	COc1cccc(NC(=O)Cn2c(=O)n(CCCCC(=O)NCc3ccc4c(c3)OCO4)c(=O)c3ccccc32)c1	-1%	37%[activator]
52	O=C(CCCCCCC(=O)NCCN1CCCC1)NCCN1CCCC1	6%	11%
53	COc1cc(NC(=O)Cn2cc(C#N)c3ccccc32)cc(OC)c1OC	3%	8%
54	Cc1cc(=O)n(CC(=O)N2CCN(c3ccc(F)cc3)CC2)c2c1c(C)nn2C	?	?
55	CCN(Cc1nc2cc(Cl)ccc2c(=O)[nH]1)C(=O)Cc1csc(-c2ccc(C)cc2)n1	22%	-4%
56	CCOCCCNC(=O)C(c1ccc(C)cc1)N(Cc1cccs1)C(=O)CNC(=O)c1ccccc1 (stereo not given)	-4%	14%
57	N#Cc1ccc(CCC(=O)OCc2ccc(C#N)cc2)cc1	5%	0%
58	Cc1ccc(-c2cc(C(=O)O)c3cc(Cl)ccc3n2)o1	32%&21%[activator]	-7%&-6%
59	c1ccc(-c2nc(N3CCCCCC3)c3ccccc3n2)nc1	?	-92%
60	COc1cccc(NC(=O)CN(C)C(=O)CSc2ncnc3scc(-c4ccccc4)c23)c1	-6%	14%

Values in list order from the entries so far:
Compounds 51–60 in 2A Renilla, in turn: 37%[activator], 11%, 8%, ?, -4%, 14%, 0%, -7%&-6%, -92%, 14%

More records follow:
#	SMILES	StopGo FLuc	2A Renilla
61	Cc1ccc(NC(=O)CCSc2nc(-c3ccc4c(c3)OCO4)cc(C(F)(F)F)n2)cc1	-18%	-10%
62	CN(C)CCCSc1nc(N2CCOCC2)c2c(c1C#N)CCCC2	-18%	-27%
63	COc1ccc2c(Sc3ccccc3)c(C(=O)NCCN(C)C)[nH]c2c1	41%[activator]	183%[activator]
64	N#C/C(=C/c1ccc(OC(F)(F)F)cc1)c1nc2ccccc2[nH]1	156%[activator]	15%
65	COc1ccc(-n2nc3ccc(NC(=O)CSc4ccccc4)cc3n2)cc1Cl	36%[activator]	-13%
66	COc1cccc(-c2[nH]nc3c2C(c2ccccc2F)C(C#N)=C(N)O3)c1 (stereo not given)	14%	-6%
67	CCc1ccc(NC(=O)Cn2nc3ccc(S(=O)(=O)C(C)(C)C)nn3c2=O)cc1	84%[activator]	41%[activator]
68	CCOC(=O)C(O)(NC(=O)NC(C)=O)C(F)(F)F (stereo not given)	80%[activator]	103%[activator]
69	c1ccc(CN2CCC(Nc3nc(-c4cccnc4)nc4ccccc34)CC2)cc1	-6%	-8%
70	CCCC1(CCC)NC(=O)N(Cc2nc3ccccc3nc2C)C1=O	16%	22%
71	Cc1cccc(C)c1-n1ncc(C(=O)N2CCN(c3ccccc3)CC2)c1C1CCN(C(=O)OC(C)(C)C)CC1	-13%	5%
72	COc1ccc(Cn2c(C(=O)O)c(CNC3CCCCCC3)c3ccc(OC)cc32)cc1	-12%	70%[activator]
73	CNS(=O)(=O)c1cc(NC(=O)C2Cc3ccc(C)cc3S2)ccc1C (stereo not given)	-14%	-26%
74	COc1ccc(C2=NN(C(=O)CN3CCc4cc(OC)c(OC)cc4C3)C(c3ccco3)C2)cc1 (stereo not given)	11%	-9%
75	CCOc1ccc2nc(N3CCCC(C(=O)Nc4cc(C)ccc4C)C3)sc2c1 (stereo not given)	31%[activator]	-25%
76	CCCCc1nn2cc(-c3ccc(C)cc3)nc2s1	79%[activator]	14%
77	C=C(C)CSc1nc2c(c(=O)[nH]c(=O)n2C)n1CCCc1ccccc1	?	?
78	Cc1ccc(CNC(=O)C2CCN(S(=O)(=O)c3cc(-c4noc(C)n4)ccc3C)CC2)cc1	?	3%
79	CC(C)(C)NC(=O)COc1ncnc2ccccc12	25%	5%
80	CCOc1ccccc1Nc1nc2ccccc2nc1NS(=O)(=O)c1ccc(Cl)cc1	-15%	-16%
81	COc1ccc(C(=O)Nc2ccc3oc(C)nc3c2)cc1	10%	?
82	O=C(NC1CCCC(C(F)(F)F)C1)c1cc2c(F)cccc2s1 (stereo not given)	-32%	?
83	CC(C)(C)OC(=O)COc1ccc2cc(-c3ccccc3)c(=O)oc2c1	124%[activator]	10%
84	CCCn1c2ccccc2c2cnn(CC(=O)N(C)c3ccc(F)cc3)c(=O)c21	-4%	3%
85	COC(=O)c1c(SCC(=O)Nc2cccc(C(F)(F)F)c2)[nH]c2ccccc2c1=O	-3%	-5%
86	CSc1ccccc1NC(=O)/C=C/c1ccncc1	0%	-19%
87	Cc1ccc2c(c1)C(=O)OC(C(=O)Nc1ccc(C(=O)O)cc1)C2 (stereo not given)	125%[activator]	7%
88	COc1cc(C(=O)OCc2ccc(C#N)cc2)cc(OC)c1OC	16%	39%[activator]
89	CCC(C)Oc1ccc(C(=O)NCc2cccs2)cc1 (stereo not given)	8%	64%[activator]
90	O=C1CN(C(=O)Nc2ccccc2Cl)C(c2ccccc2)c2c(sc3c2CCCC3)N1 (stereo not given)	-10%	-10%
91	COc1ccc(CNC(=O)Cn2ccc3cccc(OC)c32)cc1	17%	-1%
92	Cc1ccccc1COc1ccc2c(C)cc(=O)oc2c1	114%[activator]	-6%
93	CCN1CCN(CCNC(=O)CSc2ncnc3c2sc2cccc(F)c23)CC1	-17%	-21%
94	Cc1cc(C)c2oc(-c3cc(NC(=O)C(C)(C)C)ccc3O)nc2c1	-6%	4%
95	O=C(/C=C/c1cccc(O)c1)c1cccc(O)c1	108%[activator]	35%[activator]
96	CC(C)(C)C1CCC(=NO)CC1 (stereo not given)	11%	-1%[1.06 µM]
97	CN(Cc1cccc(Cl)c1Cl)C(=O)CCc1c[nH]c2ccccc12	8%	99%[activator]
98	CN(CCOc1ccccc1)C(=O)c1cc(Cl)c[nH]1	16%	18%
99	COc1ccc(NC(=O)NCCn2c(C(F)(F)F)nc3ccccc32)cc1OC	13%	16%
100	Cc1cc(C)c2c(-n3cccc3)c(C(=O)NCCc3ccc(Cl)cc3)sc2n1	-9%	-4%
101	CNC(=O)c1cc(=O)n(CC(=O)Nc2ccc(C)c(C)c2)c2ccccc12	0%	15%
102	Cc1cccc(C)c1NC(=O)c1csc2c1CCCC2	2%	-6%
103	COc1ccc(-c2nc3n(n2)C(c2ccc(O)cc2)C(C(=O)Nc2cccnc2)=C(C)N3)cc1OC (stereo not given)	-11%	-9%
104	CCOc1ccccc1N(CC)C(=O)Cc1noc2ccccc12	5%	49%[activator]
105	COc1cc2c(cc1OC)CN(C(=O)Nc1ccccc1)CC2	51%[activator]	-12%
106	CC1CCCCN1c1cc2c(cc1F)c(=O)c(S(=O)(=O)c1ccccc1)cn2Cc1ccccc1 (stereo not given)	11%	-11%
107	CC(C)(C)NCC(O)c1cc(Cl)c(N)c(Cl)c1 (stereo not given)	-11%[11.5 µM]	0%
108	Cc1ccc(-n2c(=O)c3c(c4cc(C)ccc4n3C)n(CC(=O)NCCC3=CCCCC3)c2=O)cc1	-9%	-4%

Source: PubChem BioAssay
